Mtb MenB inh – M. tuberculosis MenB inhibitors, primary screen, biochemical, absorbance; 1,4-dihydroxy-2-naphthoyl-CoA synthase (Mycobacterium tuberculosis (strain ATCC 25618 / …; inhibition, %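 (about 12 µg/mL by stock and volumes)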; actives 0.43% (n = 100,000); MenB enzyme assay, absorbance read-out; some hits fall short of the stated cut;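 active = mean of two replicates above 30%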;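 note: 0% = no compound and 100% = wells with inactive enzyme; the first replicate is given; strong numbers were not always called active; inactives centre near -10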
Target sequence (P9WNP5 whole entry, looked up): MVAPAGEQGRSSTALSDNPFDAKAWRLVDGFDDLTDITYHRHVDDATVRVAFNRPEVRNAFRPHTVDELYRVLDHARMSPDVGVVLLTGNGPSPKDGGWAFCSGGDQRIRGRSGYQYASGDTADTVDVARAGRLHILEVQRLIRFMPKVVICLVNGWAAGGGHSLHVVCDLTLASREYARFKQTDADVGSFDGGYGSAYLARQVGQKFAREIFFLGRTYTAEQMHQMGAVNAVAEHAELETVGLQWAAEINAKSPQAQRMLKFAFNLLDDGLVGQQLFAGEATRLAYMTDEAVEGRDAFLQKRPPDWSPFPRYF
Mtb MbtI inh – MbtI salicylate synthase inhibitors, primary screen, biochemical, fluorescence intensity; inhibition, %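 (about 17 µg/mL by stock and volumes)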; P9WFX0; actives 0.89% (n = 100,000); purified MbtI enzyme, fluorescence intensity read-out;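 active = above 50% in both replicates, above 80% if mildly self-fluorescent; inactive = the rest, strongly fluorescent compounds included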;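 note: 0% = mean of negative and 100% = mean of positive controls; one replicate is shown; some compounds called inactive have numbers as strong as hits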
Target sequence (P9WFX0 whole entry, looked up): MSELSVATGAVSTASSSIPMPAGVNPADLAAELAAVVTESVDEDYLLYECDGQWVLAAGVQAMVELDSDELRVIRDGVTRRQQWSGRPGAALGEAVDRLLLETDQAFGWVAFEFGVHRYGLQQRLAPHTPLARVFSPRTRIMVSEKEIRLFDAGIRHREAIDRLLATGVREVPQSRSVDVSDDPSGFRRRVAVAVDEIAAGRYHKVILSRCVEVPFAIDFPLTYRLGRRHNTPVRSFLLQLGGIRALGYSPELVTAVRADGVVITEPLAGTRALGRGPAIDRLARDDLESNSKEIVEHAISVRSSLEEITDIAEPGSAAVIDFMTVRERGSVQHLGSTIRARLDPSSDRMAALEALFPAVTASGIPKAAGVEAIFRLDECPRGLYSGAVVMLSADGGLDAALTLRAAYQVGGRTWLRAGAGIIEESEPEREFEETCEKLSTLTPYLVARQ
Polio RdRp inh – poliovirus RdRp elongation inhibitors, primary screen, biochemical, fluorescence polarization, total intensity | Genome polyprotein (Poliovirus type 1 (strain Mahoney)), P03300 | poliovirus polymerase elongation; stronger effect = lower value | % elongation, % (compound at 16.7 µg/mL) | actives 0.66% (n = 150,000); in the data active = % elongation below about 90%; note: some results filed as inactive read as strong as hits
Polio RdRp inh intensity – recorded beside Polio RdRp inh, whose call it bears; % elongation; measured here: total intensity read-out; formula for this scale not given here;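 total fluorescence in place of polarization; lower means less elongation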
An asterisk follows results filed as active; i = inactive; / = no result given; & = joins results of further samples.

SMILES	Mtb MenB inh	Mtb MbtI inh	Polio RdRp inh	Polio RdRp inh intensity
NNC(=O)CC12CC3CC(CC(C3)C1)C2	-11	-7	103	95
O=C(NC1CCCCC1)N(Cc1ccccc1)Cc1ccco1	-2	-6	103	104
CC(C)NC(=O)NC(=O)CN1CCCC1	15	0	100	107
COC(=O)c1ccc(COC(=O)c2cc(S(=O)(=O)N(C)C)ccc2N2CCCC2)o1	-11	23	106	106
CCC(NS(=O)(=O)c1ccc(OC)cc1)C(=O)NC1CCCCC1C (configuration not stated)	-11	-9	105	108
O=C1CSC(=O)N1Cc1ccc(CN2C(=O)CSC2=O)cc1	-5	-2	104	109
Cc1[nH]n(-c2ccccc2)c(=O)c1Sc1ccc(Cl)cc1	-6	-207	102	103
CCCCCCCCCCCCCCC[C@@H](O)[C@H](CO)NC(C)=O	-2	-16	102&101	102&101
O=C(CCN1C(=O)C2CC=CCC2C1=O)N1CCN(C(c2ccccc2)c2ccccc2)CC1 (configuration not stated)	-1	-16	99	108
c1ccc(-c2ccc(SCc3cccnc3)nn2)nc1	-16	7	101	106
N#C/C(=C/c1ccc(O)c(O)c1)C(=O)OC/C=C/c1ccccc1	29	2	106&107	106&108
COc1cc2c(cc1NC(=O)C(C)Sc1nncn1C)oc1ccccc12 (configuration not stated)	-22	1	102	106
Cc1ccc(S(=O)(=O)NC(CC(=O)O)c2ccccc2)cc1 (configuration not stated)	-11	-4	102	103
COC(=O)C(C)Sc1nc2ccccc2c(=O)n1-c1ccccc1 (configuration not stated)	-38	9	97	94
CN(C)CCNC(=O)c1ccccc1	8	-6	105	109
O=C(CSc1nc2cc(Cl)ccc2c(=O)n1Cc1ccccc1)N1CCOCC1	2	-8	104	108
CNC(=O)c1ccc(N2CCCS2(=O)=O)cc1	-6	-31	101	102
Nc1ncc(Br)cc1S(=O)(=O)NCCC(=O)Nc1nccs1	0	-6	102	103
CCC(Cc1ccccc1)NC(=O)c1ccc2nc(-c3ccccc3NC(C)=O)c(=O)[nH]c2c1 (configuration not stated)	-6	-11	103	102
Cc1ccc(S(=O)(=O)c2nc(NCCN3CCOCC3)sc2Cl)cc1	-20	-7	101	104
CCOC(=O)c1c(C)[nH]c(C)c1S(=O)(=O)Nc1cc(C)cc(C)c1	6	-16	101	102
C=C1C(C(=O)Nc2nccs2)C1C(=O)Nc1nccs1 (configuration not stated)	2	2	100	104
Cc1c(C(=O)Nc2ccc(S(=O)(=O)N3CCCCC3C)cc2)oc2ccccc12 (configuration not stated)	-31	57	102	98
Cc1cccc(C(=O)N/C(=C/c2ccco2)C(N)=O)c1	-11	22	100	103
C/C(=N\NC(=O)Cn1nnc(-c2cccc(C(F)(F)F)c2)n1)c1ccncc1	-13	29	106	104
N#CCCN(Cc1ccccc1)C(=O)c1ccccc1	-29	-3	100	102
O=C(NCCc1ccccn1)c1ccc2nccnc2c1	2	-3	110	114
Cc1cc(N2CCN(C)CC2)nc2ccc(NC(=O)NC3CCCC3)cc12	-11	-178	101	99
O=C1CCCC(O)=C1C=NCc1ccccc1	/	17	98	99
CCOC(=O)c1cnc2c(C(=O)OC)c[nH]n2c1=O	16	117	101	100

Arranged by length of the SMILES (ascending): part of the list above
SMILES	Mtb MenB inh	Mtb MbtI inh	Polio RdRp inh	Polio RdRp inh intensity
N#CCCN(Cc1ccccc1)C(=O)c1ccccc1	-29	-3	100	102
C=C1C(C(=O)Nc2nccs2)C1C(=O)Nc1nccs1 (configuration not stated)	2	2	100	104
Cc1cc(N2CCN(C)CC2)nc2ccc(NC(=O)NC3CCCC3)cc12	-11	-178	101	99
CCOC(=O)c1c(C)[nH]c(C)c1S(=O)(=O)Nc1cc(C)cc(C)c1	6	-16	101	102
Cc1c(C(=O)Nc2ccc(S(=O)(=O)N3CCCCC3C)cc2)oc2ccccc12 (configuration not stated)	-31	57	102	98
C/C(=N\NC(=O)Cn1nnc(-c2cccc(C(F)(F)F)c2)n1)c1ccncc1	-13	29	106	104
CCC(Cc1ccccc1)NC(=O)c1ccc2nc(-c3ccccc3NC(C)=O)c(=O)[nH]c2c1 (configuration not stated)	-6	-11	103	102

The list continues.
SMILES	Mtb MenB inh	Mtb MbtI inh	Polio RdRp inh	Polio RdRp inh intensity
COc1ccc2cc3cc(C(=O)N4CCC5(CC4)OCCO5)oc3nc2c1	1	-20	102	105
CCc1cc(C(=O)Nc2sccc2C(N)=O)cs1	-18	-264	104	115
COC(=O)c1ccc(OCC#N)cc1	/	0	98	98
COc1ccccc1N1CCN(C(=O)c2ccc(/C=C3\Oc4ccccc4NC3=O)cc2)CC1	0	13	102	99
CN(C)c1ccc(CNC(=O)c2ccc(CN(Cc3ccccc3)C(=O)Nc3ccccc3)o2)cc1	-25	47	100	103
COc1ccc(CN(C(=O)c2cccc(Cl)c2)C2CCS(=O)(=O)C2)cc1OC (configuration not stated)	-16	-17	103	105
O=C(Nc1ccc(-c2cn3ccsc3n2)cc1)c1ccccc1	-33	19	95	102
CC1CCN(C(=O)CN(C)S(=O)(=O)c2cccc3nsnc23)CC1	4	16	103	99
COc1ccc(C(=O)OCc2ccccc2C(F)(F)F)c(O)c1	-5	10	99	103
CN(C)CCN(C(=O)C1CCCCC1)c1nc2ccc(Br)cc2s1	-12	-3	104	104
Cc1oc(C(C)(C)C)cc1C(=O)NCc1csc2ccc(Cl)cc12	-40	8	99	93
Cc1cc(C)c2c(n1)SCC(=O)N2CC(=O)NCCCN1CCOCC1	4	-5	102	103
O=C(CSCc1ccc(F)cc1)N1CCN(c2ccccc2)CC1	-16	-15	106&100	111&102
NS(=O)(=O)c1ccc(NC(=O)c2cn(-c3ccccc3)nc2-c2cccs2)cc1	-33	72	105	106
CC(C)c1cccc(C(C)C)c1OC(=O)NC(=O)c1c(F)cccc1F	-8	-8	105	114
O=C(c1cc2ccccc2o1)N(C1CC1)C1(C(=O)Nc2ccccc2)CCCC1	-28	-10	105	111
Cc1ccc(OC(=O)c2cc3ccccc3o2)cc1	-6	-3	99	100
COc1cc2c(cc1/C=C1/NC(=O)N(Cc3ccccc3)C1=O)OCO2	6	10	101	105
S=P1(NCc2ccccc2)NC(=NCc2ccccc2)c2c(nc3n2CCC3)N1 (configuration not stated)	-5	-20	100	102
CC(C)(C)C1=CC(CO)CC(CO)C1 (configuration not stated)	-20	-17	100	102
O=C1CCCC(=O)C1C1c2ccccc2Oc2ccc(F)cc21 (configuration not stated)	-6	-4	100	100
CNC(=O)c1nc(-c2ccccc2)no1	-15	-173	104	104
COc1ccc(CNC2CC(C)(C)NC(C)(C)C2)cc1	-20	/	104	108
O=C(NCc1ccccc1)NC1(C(=O)N2CCCC2)CCCCC1	3	-13	104	102
CN(C)CCN(Cc1ccccc1)Cc1ccsc1	-1	/	97	98
Cc1cccn2c(=O)c(/C=C3\SC(=S)N(C)C3=O)c(N3CCCC3)nc12	-24	6	115	129
CCC1COC(c2cccn2Cc2ccccc2Cl)=N1 (configuration not stated)	-22	-10	104	109
Cc1cc(C(=O)CSc2nccn2Cc2ccccc2)c(C)n1-c1ncn[nH]1	-15	-3	104	111
CC(=O)Nc1cc(C(F)(F)F)ccc1N1CCN(c2ccccc2)CC1	-6	/	104	107
COc1ccc(-c2cc(=NCCc3ccccc3)c3cc(C)ccc3o2)cc1	-9	i	101	96

Some entries already given, showing only Mtb MenB inh:
| Structure | Mtb MenB inh |
| --- | --- |
| Cc1ccc(OC(=O)c2cc3ccccc3o2)cc1 | -6 |
| CN(C)CCN(Cc1ccccc1)Cc1ccsc1 | -1 |
| O=C1CCCC(=O)C1C1c2ccccc2Oc2ccc(F)cc21 (configuration not stated) | -6 |

Other compounds:
SMILES	Mtb MenB inh	Mtb MbtI inh	Polio RdRp inh	Polio RdRp inh intensity
O=C(COC(=O)C1CCC1)c1ccccc1	/	-6	101	105
CCOC(=O)c1c(/N=C/C2C(=O)c3ccccc3C2=O)sc(C)c1C	-14	-3	103	106
O=C(/C=N/O)Nc1cccc(C(F)(F)F)c1	/	3	106	103
COc1ccc(Cn2c(N)c(S(=O)(=O)c3ccccc3)c3nc(C#N)c(C#N)nc32)cc1	-21	-7	105	109
CCCn1cc(C(=O)c2ccc(C)cc2)c(=O)c2ccc(C)nc21	11	5	102	116
O=C(NCc1ccco1)c1cccc(N2CCCC2=O)c1	2	8	101	106
C/C(N)=C(/C#N)C(=O)CSc1nc2ccccc2n1CC(C)C	-25	-2	103	107
N#C/C(=C\c1ccccc1)C(=O)NN1CCOCC1	-22	21	101	104
Cc1oc2c(c1C(=O)NC(C)(C)C)C(=O)c1ccccc1C2=O	10	2	102	106
Cc1nnc(-c2ccccc2)c(=O)n1/N=C/c1ccc2c(c1)OCO2	-61	/	102	106
Cc1cc(P(=N)(N2CCOCC2)N2CCOCC2)c(C)n1-c1ccc(I)cc1	0	-8	100	109
CCOC(=O)c1cc2c(C(F)(F)F)cc(=O)[nH]c2o1	/	90	101	97
O=C(NCCc1nc(-c2ccccc2)cs1)c1ccccc1	-7	/	106	112
Cc1ccc(/C(N)=N/O)cc1	8	/	102	104
Cc1nn(-c2ccccc2)c(-n2cccc2)c1C(=O)N1CCCC1	-3	-3	103	99
COc1ccc(OCCNS(=O)(=O)c2ccc3c(c2)oc2ccccc23)cc1	-28	/	110	109
CC(=O)N1CCc2cc(S(=O)(=O)NC(C)C(=O)O)ccc21 (configuration not stated)	-32	-11	101	101
O=C(CC1NCCN(Cc2ccccc2)C1=O)N/N=C/c1cc(Cl)cc(Cl)c1O (configuration not stated)	-34	-5	104	103
CCCC1Nc2ccccc2S(=O)(=O)N1 (configuration not stated)	5	18	98	101
O=C(OCC(=O)N1CCCCC1)c1ccc(Oc2ccccc2)cc1	/	-1	102	100
O=C(Cn1c(=O)n(-c2ccc(F)cc2)c(=O)c2oc3ccccc3c21)NCc1ccc2c(c1)OCO2	-25	-4	104	107
CS(=O)(=O)N(Cc1ccccc1)c1ccccc1	7	-9	98	103
Cc1ccc(C2=CC(c3cccs3)n3c(nc4ccccc43)N2)cc1C (configuration not stated)	-43	15	101	112
Cc1ccccc1CSCc1ccc(C(=O)NCc2cccs2)o1	0	6	103	100
N#Cc1cccnc1NNC(=O)CC1(CC(=O)O)CCCC1	-27	12	104	99
Cc1noc(C)c1S(=O)(=O)N(C)CC(=O)N1CCc2ccccc21	5	-2	101	98
CC1(C)CC2CC(C)(CN2C(=O)COC(=O)Cn2[nH]c(=O)c3ccccc3c2=O)C1 (configuration not stated)	-26	1	102	92
O=C(CC1NC2CCCCC2NC1=O)Nc1ccc2c(c1)OCCO2 (configuration not stated)	-18	-14	101	101
CC1=CS(=O)(=O)CC1SC(=S)N(C)C1CCS(=O)(=O)C1 (configuration not stated)	-12	-3	101	103
CCOC(=O)CSc1nnc(Cc2ccc(OC)c(OC)c2)o1	-38	-8	104	99
COC(=O)c1ccc(NC(=S)Nc2cc(C)[nH]n2)cc1	-38	7	100	103
CC1CCN(c2nnc(NC(=O)Cn3c(=O)oc4ccccc43)s2)CC1	-13	-1	102	104
N#Cc1cccc(NC(=O)CCCc2ccccc2)c1	/	-10	101	97
Cc1c(C(=O)NCc2ccccc2)oc2ccc(S(=O)(=O)N3CCCC3)cc12	-1	-8	101	105
CCOC(=O)c1sc(N(Cc2ccccc2)C(=O)CSc2nnc(-c3ccco3)n2C)nc1C	-18	6	107	111
Cc1nc(C)c(CC(=O)N/N=C/c2ccc(F)cc2)c(=O)[nH]1	-60	-2	105	99
CC(C)CNC(=O)N1CCC2(CC1)NC(=O)c1ccccc1O2	-19	-24	100	102
Cn1nnnc1SCC(=O)NC(C)(C)C	-11	/	95	90
Cc1ccc2c(COC(=O)c3ccccc3NCc3ccco3)cc(=O)oc2c1C	-4	-3	105	107
CNc1nsc(C(=O)c2ccc(F)cc2)c1N	-13	2	101	103
O=C(NCCc1ccccc1)c1cc2sccc2n1Cc1ccc(Cl)cc1	-15	8	101	105
CC(C)(C)NC(=O)CS(=O)(=O)c1cn(CC(=O)N2CCCCC2)c2ccccc12	-19	-9	102	110
O=C(O)c1ccc(-c2nnc(-c3ccccc3Cl)o2)cc1	1	31	101	95
O=C(Nc1ccc(-n2cnnn2)cc1)c1ccccc1C(F)(F)F	8	-11	108	106
O=C(Nc1ccccc1C(F)(F)F)c1noc2c1CCc1ccccc1-2	-22	-4	102	103
CC1(C)CC(=O)C(C=NCC(O)CO)=C(O)C1 (configuration not stated)	-9	20	98	104
CN(C(=O)CN1C(=O)C2CC=CCC2C1=O)C1CCS(=O)(=O)C1 (configuration not stated)	6	3	102	105
COc1cc2[nH]c(=O)c(C(=O)NC(C)c3ccccc3)c(O)c2cc1OC (configuration not stated)	-4	/	102	111
CN(C)/C=C/C(=O)c1ccsc1	0	2	102	109
CCN(CC)C(=O)c1ccccc1NC(=O)c1ccccc1	-9	-5	105	100
Cc1c(CN2CC=C(c3ccccc3)CC2)c(=O)n(-c2ccccc2)n1C	-6	-14	105	112
O=C(NCCN1CCCCCC1)c1ccc(CS(=O)(=O)c2ccc(Br)cc2)o1	-5	8	100	97
N=C(N=C(N)N)N(c1ccccc1)c1ccccc1	3	-21	100	103
CCc1c(C)sc(NC(=O)c2cnn3cccnc23)c1C#N	-5	35	100	102
CC(C)CNC(=O)c1nc(-c2ccccc2)n(-c2ccccc2)n1	1	-11	101	108
CC(Nc1ncnc2c1cnn2C)C1CC2CCC1C2 (configuration not stated)	-1	-2	102	104

Screening results: PubChem BioAssay, ICCB-Longwood Screening Facility, Harvard Medical School
